# Beta apoptosis – inhibitors of cytokine-induced beta cell apoptosis, primary screen, luminescence | INS-1E cytokine-induced death, ATP luminescence, 48 h; percent of positive-control rescue, neutral wells zero | 0.8% of 300,000 active | protection from apoptosis, % (test concentration not listed);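 active means all replicates at 75% or more, or half of them and the mean; inconclusive means half reach 75% but not the mean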;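 further: 0% = cytokine-treated negative control wells and 100% = positive control rescue; higher means more ATP so stronger rescue from cytokine killing; wells of about 40 µL received 100 nL stock; the first replicate is given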
# Vif A3G – inhibitors of Vif binding to APOBEC3G peptide, primary screen, biochemical, TR-FRET, GST-Vif 1-94, biotin-A3G peptide, dose response retest (AID 1117319); Virion infectivity factor (Human immunodeficiency virus type 1 group M subtype B (isolate …; inhibition, %, or IC50 in µM where a hit was titrated; 0.57% of 260,000 active; TR-FRET GST-Vif / biotin-A3G peptide binding; higher % means a stronger effect; test concentration not given here; strong numbers were not always called active;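 active means above the screen mean plus three standard deviations and confirmed in dose response; inconclusive means results disagree or hit not tested in dose response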;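 further: Vif residues 1-94 fused to GST binding biotinylated APOBEC3G peptide 110-148; 0% = full assay without inhibitor and 100% = GST in place of GST-Vif; retest series ran down from 100 µM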
# Calb FLC – C. albicans growth inhibition with fluconazole, primary screen, CaCi-2 strain, Alamar Blue fluorescence | growth inhibition, % (test concentration not listed) | C. albicans CaCi-2 (fluconazole-resistant clinical isolate) + fluconazole, 48 h | 0.57% of 300,000 active;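 active means most replicates above 75%; inconclusive means exactly half above 75%; inactive means most below 75%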;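 further: all wells also contain fluconazole at 8 µg/ml as a sub-toxic cotreatment; 0% = median of DMSO wells and 100% = median of geldanamycin control wells; wells of about 8 µL received 7.5 nL stock; the first replicate is given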
# MLL AF4-AF9 inh – inhibitors of AF4 peptide binding to AF9, primary screen, biochemical, AlphaScreen, biotin-AF4 peptide, FLAG-AF9, single point | inhibition, % at 10 µM | 0.47% of 350,000 active | AID 651704, 2012;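 active means every replicate reaching a set inhibition limit, whatever the replicate mean, cut at about 25% in these data; inconclusive means mean inhibition reaches that limit but some replicates miss it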;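 further: 0% = plate neutral control median and 100% = total signal loss; the record names both 10 and 1 µM as test concentration; the first replicate is given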
# Target sequence (P42568 whole entry, looked up): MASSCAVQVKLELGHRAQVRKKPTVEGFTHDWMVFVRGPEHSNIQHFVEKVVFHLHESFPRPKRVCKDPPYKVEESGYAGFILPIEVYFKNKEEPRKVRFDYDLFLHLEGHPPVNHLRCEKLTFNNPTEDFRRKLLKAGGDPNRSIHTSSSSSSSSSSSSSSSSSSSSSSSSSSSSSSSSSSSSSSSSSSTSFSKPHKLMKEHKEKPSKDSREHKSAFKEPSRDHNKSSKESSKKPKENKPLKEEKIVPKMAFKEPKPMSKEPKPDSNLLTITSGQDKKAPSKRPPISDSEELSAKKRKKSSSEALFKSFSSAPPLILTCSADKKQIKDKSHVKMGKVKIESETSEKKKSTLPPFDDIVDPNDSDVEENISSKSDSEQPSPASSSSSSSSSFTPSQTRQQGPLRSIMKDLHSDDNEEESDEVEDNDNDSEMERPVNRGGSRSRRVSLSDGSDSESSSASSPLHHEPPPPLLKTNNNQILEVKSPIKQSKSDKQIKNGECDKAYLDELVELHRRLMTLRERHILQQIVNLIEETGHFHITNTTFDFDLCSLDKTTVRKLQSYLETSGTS
# T cruzi repl – inhibitors of intracellular T. cruzi growth, primary screen, luminescence, NIH3T3 host cells | inhibition, % (test concentration not listed) | 1.4% of 300,000 active | T. cruzi beta-gal in NIH3T3, 90 h;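 active means mean inhibition across valid replicates above about 55%, limit read from the data; inconclusive means mean below that limit but half or more replicates reach it; inactive means mean below it, under half of replicates reach it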;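 further: signal also drops with host cell toxicity which is not excluded here; 0% = plate median of DMSO wells and 100% = zero luminescence signal; higher percent means less beta-gal luminescence so fewer parasites; stock transfer was 50 nL into about 50 µL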
# RanGTP-Imp inh – inhibitors of RanGTP-importin-beta interaction, primary screen, biochemical, FRET, CFP-Ran, YFP-importin-beta, homogeneous; Ran GTPase (GTP-bound) - importin-beta complex; cell-free CFP-Ran/YFP-importin-beta FRET ratio; inhibition, % (concentration not given with the values); 1.1% of 300,000 active; AID 2216, 2009;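 active means most replicates above 15%; inconclusive means exactly half above 15%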;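 further: 0% = DMSO wells and 100% = Ran loaded with GDP instead of GTP; wells of about 40 µL received 100 nL stock; the first replicate is given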
# Bfl-1 A1 inh – caspase 3/7 activation in MEF A1-2A-BIM cells, primary screen, A1 inhibitor project, cell-based, luminescence, HTS | 0.066% of 330,000 active | Caspase-Glo 3/7 luminescence, 3 h; percent of clofoctol response, vehicle zero | caspase activation, % (concentration not given with the values);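 active means over half of replicate activation scores above 10%, or exactly half above 10 with the replicate mean above 10; inconclusive means replicate mean below 10 yet half the replicates above 10; inactive means over half of replicates below 10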;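 further: wells of about 30 µL received 50 nL stock; many hits fall short of the cut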
# Ecoli rRNA inh – reduced GFP signal of wild-type E. coli, primary screen, bacterial rRNA inhibitor project, GFP/RFP fluorescence, OD600, single point | E. coli WT GFP vs humanized-ribosome RFP mutants, 24 h; hits give low values; DMSO median 0, no signal -100 | GFP signal change (wild-type ribosome), % (no concentration beside the values) | 1.6% of 350,000 active | AID 720706, 2013;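 active means significant combined selectivity score with lowered wild-type GFP, culture density cut under 30%, mutant RFP and density less affected; inactive means any of these conditions unmet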; further: one replicate is shown; some compounds called inactive have numbers as strong as hits
# Ecoli rRNA inh OD600 – recorded beside Ecoli rRNA inh, whose call it bears; OD600 change, %; measured here: OD600 growth;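 optical density of the mix in the first replicate; 0 = DMSO median and -100 = no signal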
# Ecoli rRNA inh RFP – recorded beside Ecoli rRNA inh, whose call it bears; RFP signal change, %; measured here: RFP humanized mutant strains;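 first replicate; 0 = DMSO median and -100 = no signal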
# The depositor's hits bear a star; ? = inconclusive; / = no result given; & = joins results of further samples. This is a subset, so the mix of outcomes need not match the whole.
SMILES,Beta apoptosis,Vif A3G,Calb FLC,MLL AF4-AF9 inh,T cruzi repl,RanGTP-Imp inh,Bfl-1 A1 inh,Ecoli rRNA inh,Ecoli rRNA inh OD600,Ecoli rRNA inh RFP
Cc1sc(NC(=O)CN(Cc2ccc(F)cc2)C(=O)C(C)(C)C)c(C(N)=O)c1C,-3,5%,27,2.5,3,4.2,0.9,8,6,-4.1
O=C(Cc1ccc(S(=O)(=O)N2CCOCC2)s1)Nc1cc(C(F)(F)F)cc(C(F)(F)F)c1,-12,5%,/,-1.5,/,/,-0.7,/,/,/
O=C(Nc1ccc(S(=O)(=O)Nc2ccccc2F)cc1)N1CCCCC1,1,/,-17,-0.2,3,-0.9,-0.1,1,-12,1.6
CN(C)S(=O)(=O)c1ccc(N2CCCC2)c(C(=O)NCC(=O)Nc2ccc(F)c(F)c2)c1,5,-9%,/,-2.7,/,/,0.0,4,4,-1.1
O=C(Cn1c(=O)sc2ccccc21)Nc1ccccc1C(=O)O,-3,0%,-1,/,-9,4.3,0.6,/,/,/
CCS(=O)(=O)c1nc(S(=O)(=O)c2ccc(C)cc2)c(N2CC(C)CC(C)C2)s1 (centres undefined),-2,-9%,1,2.3,2,1.5,-0.4,-17,-16,0.9
Cc1ccc(S(=O)(=O)NN2Cc3ccccc3C2=N)cc1,-6,5%,-8,0.3,-18,-1.5,0.3,5,-12,-6.5
CCN1CCN(C(CNS(=O)(=O)c2ccc(OC)c(C)c2)c2cccnc2)CC1 (centres undefined),4,5%,-7,2.6,22,1.5,0.2,1,-3,0.0
Nc1cccc2cc(-c3ccccc3)oc12,-1,-3%,/,-2.9,/,/,-3.0,-2,20,-3.9
Cc1cc(C)cc(OCC(=O)Nc2cc(NC(=O)COc3cc(C)cc(C)c3)cc(C(=O)O)c2)c1,-2,/,1,0.1,-30,-4.7,0.3,-30,-33,19
S=c1[nH]nc(C2CCCCC2)o1,-4,4%,11,-1.6,-28,-3.0,2.3,-14,-6,-2.8
CN(CC(=O)Nc1ccccc1Br)C(=O)CN1CCN(Cc2ccc(Cl)cc2)CC1,2,2%,/,2.7,/,/,-0.9,13,2,6.9
CC(C)(C)c1ccc(S(=O)(=O)N2C=CC(C(F)(F)F)=NCC2)cc1,3,29%,-2,/,-10,0.5,-0.1,/,/,/
COc1cc(C=O)ccc1OC(=O)c1ccc(C(C)C)cc1,-1,0%,24,-1.4,-3,3.5,-0.3,-21,-22,-1.8
Cc1cccn2c1nc(=S)n2C(=O)c1ccco1,-2,2%,9,/,-17,6.9,-0.2,/,/,/
COc1ccc(S(=O)(=O)Nc2ccc(N3CCOCC3)cc2)cc1[N+](=O)[O-],3,15%,-9,-0.8,13,5.7,1.0,10,5,-2.6
O=C(/C=C/c1ccc(Cl)cc1)Nc1ccc(CN2CCOCC2)cc1,-2,/,5,-2.1,-2,3.5,0.9,8,6,4.8
CN(C(=O)c1ccco1)c1nc(-c2ccccc2)cs1,3,11%,-30,-1.4,-6,0.9,-1.1,-5,-8,-3.7
CN(C)C(CNC(=O)c1ccc(NS(=O)(=O)c2ccc3[nH]c(=O)[nH]c3c2)cc1)c1ccccc1 (centres undefined),-5,/,-1,-7.3,-2,3.7,1.0,2,15,-0.5
COc1ccc(-n2ccnc2)cc1,-8,-4%,-8,-0.9,-11,-0.5,0.2,1,1,-1.6
C=CC[C@@H](CC(=O)N[C@H](CO)Cc1ccccc1)C(=O)N[C@@H](C)COC(=O)[C@@H](CC=C)Cc1ccc(F)cc1,-7,/,/,4.4,/,/,-0.1,1,0,13
O=C(NC1CCCCCC1)C1c2ccccc2C(=O)N1Cc1cccnc1 (centres undefined),-9,6%,-8,/,-10,-0.3,0.1,/,/,/
COc1ccc(CNC(=O)c2cccnc2Sc2ccc(C)c(C)c2)cc1,-2,-31%,2,/,-4,3.1,1.3,/,/,/
CCOc1ccc(-n2cnc3c(=O)[nH]c(N)nc32)cc1,-4,?,/,-1.6,-24,6.5,1.3,10,18,0.8
COc1ccc(C(=O)Nc2ccccc2C(=O)NC(C(=O)NCc2ccco2)C(C)C)cc1 (centres undefined),11,0%&-9%,12,/,-12,-0.7,0.2,/,/,/
Cc1ccc(C2SCCN2C(=O)c2ccc([N+](=O)[O-])cc2)cc1 (centres undefined),-8,/,13,/,1,-1.1,2.0,/,/,/
COc1ccccc1N1CCN(C2CCCN(S(=O)(=O)c3ccccc3)C2)CC1 (centres undefined),/,-9%,-7,2.7,-7,2.9,0.9,10,-3,2.2
Cc1cccc(S(=O)(=O)C(C#N)c2nc3ccccc3nc2N2CCCC2)c1 (centres undefined),-7,12%,8,/,8,1.4,0.1,/,/,/
COCCn1c(=NC(=O)c2ccc3c(c2)OCCO3)sc2cc(S(N)(=O)=O)ccc21,3,-12%,-13,-2.1,-3,4.9,1.5,9,10,1.6
Cc1ccc(S(=O)(=O)c2c(C)cc(C)[nH]c2=O)c(C)c1,-1,5%,20,-2.5,-3,3.0,1.1,6,6,-0.1
CC(=O)c1cccc(NC(=S)NCCC2=CCCCC2)c1,24,8%,-5,/,-8,-0.9,0.1,/,/,/
CCOC(=O)C1=NNC2(c3ccc(Cl)cc3)C(=O)N(c3ccc(C)cc3)C(=O)C12 (centres undefined),8,13%,-5,/,-9,?,-0.5,/,/,/
O=C(O)C1CC(=O)N(Cc2cccnc2)C1 (centres undefined),-4,10%,-4,-20,-22,-0.1,0.7,6,5,4.0
Cc1ccc(N2C(=O)C3CCCN3C2=S)cc1C (centres undefined),-3,/,0,-3.1,-14,0.3,0.1,-5,7,-4.8
COC(=O)c1[nH]c2ccccc2c1NC(=O)CCN1CCN(C2CCCCC2)CC1,/,18%,-6,/,13,3.2,/,/,/,/
CCOC(=O)N1CCN(S(=O)(=O)N2CCCC(C(=O)NCc3ccccc3Cl)C2)CC1 (centres undefined),-1,1%,-27,1.4,-6,2.9,0.6,3,2,-3.5
CC(C)Oc1ccccc1OCCCCn1cnc2ccccc2c1=O,1,-3%,24,-1.3,-1,-1.7,0.3,11,6,0.0
CN(CC(=O)Nc1ccccc1Cl)C(=O)COC(=O)c1cnccn1,-2,/,5,2.0,-8,-0.9,1.1,11,5,1.2
CSCCC(=O)NC1CCCN(CCc2ccccc2)C1 (centres undefined),/,-2%,-3,0.5,37,2.4,-0.8,17,11,0.1
CCCOc1ccc(OC(=O)c2ccc(Br)o2)cc1,2,-1%,-10,/,2,2.5,-0.2,/,/,/
CN1CCc2c(sc3nc(SCC(=O)NCc4ccco4)n(-c4ccccc4)c(=O)c23)C1,-5,/,18,6.4,31,25*,-0.5,3,12,5.1
Cc1ccccc1-c1nc(CN2CCC(C(=O)NC3CCN(Cc4ccccc4)CC3)CC2)c(C)o1,-4,/,-2,-1.3,16,-3.2,1.3,11,11,0.9
COc1cc(CNCCN2CCOCC2)ccc1OCC(=O)NC(C)(C)C,-3,16%,-6,-2.2,27,7.7,-0.6,/,/,/
Cc1ccc(C(=O)NCC(=O)OCCCn2c(=O)[nH]c3ccccc32)cc1,-3,0%,-2,7.4,-13,-1.6,0.3,1,-2,-2.2
CSc1ccc(CN(C)C(=O)C23CC4CC(CC(Cl)(C4)C2)C3)cc1,/,/,3,-0.9,7,-4.4,2.5,-9,-28,5.5
Cc1ccc(OC(=O)COc2ccccc2C)c(-n2nc3ccccc3n2)c1,3,0%,-14,/,-5,1.5,-6.7,/,/,/
CCN1CCN(C(=O)c2ccccc2Nc2ccc(SC(F)F)cc2)CC1,16,7%,13,5.5,-5,?,0.0,5,-6,-0.3
CCCC1(CCC)NC(=O)N(CC(=O)c2cc(C)n(-c3ccc4c(c3)OCO4)c2C)C1=O,-1,/,-1,/,20,0.2,-0.8,/,/,/
Cc1cc(CNC(=O)COc2ccc([N+](=O)[O-])cc2)c2ccccc2n1,8,-8%,?,-1.1,-9,-1.1,0.5,6,3,-7.6
CC(=O)OCC(=O)[C@@]1(O)[C@H](C)C[C@H]2[C@@H]3CCC4=CC(=O)C=C[C@]4(C)[C@@]3(F)[C@@H](O)C[C@@]21C,-6,?,/,-0.3,27,?,0.2,/,/,/
Cc1ccc(S(=O)(=O)n2c(=O)oc3ccccc32)cc1,-5,0%,1,4.6,-18,-1.8,/,-4,-5,-5.8
CCCC1(c2ccccc2)NC(=O)N(CC(=O)NCc2ccc(C)cc2)C1=O (centres undefined),0,-1%,-2,0.6,-8,2.4,1.9,-1,1,-0.6
CC(C)c1ccc(C2NC(=O)CCC2[N+](=O)[O-])cc1 (centres undefined),-1,/,-10,3.9,-11,3.8,0.3,10,2,-2.7
COC(=O)c1ccc(SCC(=O)NC2CCCCC2)c([N+](=O)[O-])c1,1,-2%,-30,/,5,2.5,0.6,/,/,/
CC(=O)c1cc2c(cc1NC(=O)CSc1nc3ccccc3o1)OCO2,0,72%,-9,/,13,3.5,-0.9,/,/,/
Cc1onc(-c2c(F)cccc2Cl)c1C(=O)OCC(=O)NC(c1ccccc1)c1ccccc1,13,?,-7,/,38,?,-0.4,/,/,/
C=CCN1C(=O)C(O)(CC(=O)c2ccc(OC)cc2OC)c2cc(Br)ccc21 (centres undefined),-5,-1%,-14,/,-5,-0.4,-0.8,/,/,/
Cn1c(NC(=O)COc2ccccc2)cc(=O)n(C)c1=O,/,3%,-2,4.4,-6,3.0,-1.2,11,10,3.1
O=C1N(c2ccccc2)C2CS(=O)(=O)CC2N1c1ccc(Br)cc1 (centres undefined),-8,?,8,/,18,2.0,0.5,/,/,/
CCOC(=O)C(NC(=O)c1ccccc1Cl)(Nc1ccc(C(F)(F)F)cc1)C(F)(F)F (centres undefined),-10,/,-9,/,2,-1.6,0.3,/,/,/
Cc1nn(CC(=O)NC(=O)c2ccccc2)c(C)c1[N+](=O)[O-],-1,5%,/,-5.6,/,/,0.8,8,10,2.3
